Bioassay records: PubChem BioAssay, Broad Institute
Beta cell apopt: blocks beta cell apoptosis; INS-1E cytokine-induced death, ATP luminescence, 48 h; percent of positive-control rescue, neutral wells zero; protection from apoptosis, % (concentration not given with the values); 0.8% of 300,000 active;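 active = all replicates at 75% or more, or half of them and the mean; inconclusive = half reach 75% but not the mean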;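 also: 0% = cytokine-treated negative control wells and 100% = positive control rescue; higher means more ATP so stronger rescue from cytokine killing; wells of about 40 µL received 100 nL stock; the first replicate is given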
ALR H2O2 inh: inhibitors of human sulfhydryl oxidase ALR; 3.8% of 290,000 active; purified ALR, DTT oxidation, H2O2 HRP-luminol luminescence; AID 485317; inhibition, % (no concentration beside the values); P55789;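 active = mean and each replicate at 75% or more; inconclusive = only one of the two met; inactive = neither met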;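 also: stock transfer was 7.5 nL into about 7.5 µL; 0% = neutral wells and 100% = wells with inactivated enzyme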
Target sequence (P55789 whole entry, looked up): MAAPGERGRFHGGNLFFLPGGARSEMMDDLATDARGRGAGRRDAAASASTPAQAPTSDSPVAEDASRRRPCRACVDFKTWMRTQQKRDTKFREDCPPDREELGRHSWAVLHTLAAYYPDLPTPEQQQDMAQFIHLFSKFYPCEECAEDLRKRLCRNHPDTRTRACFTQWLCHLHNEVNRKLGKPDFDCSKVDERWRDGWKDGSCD
RanGTP-Imp inh: disruptors of Ran-importin-beta complex formation – biochemical, FRET, CFP-Ran, YFP-importin-beta, homogeneous, primary screen; cell-free CFP-Ran/YFP-importin-beta FRET ratio; inhibition, % (no concentration beside the values); 1.1% of 300,000 active; AID 2216;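 active = most replicates above 15%; inconclusive = exactly half above 15%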;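 also: 0% = DMSO wells and 100% = Ran loaded with GDP instead of GTP; wells of about 40 µL received 100 nL stock; the first replicate is given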
Calb FLC: C. albicans growth modulation with fluconazole. 0.57% of 300,000 active. growth inhibition, % (no concentration beside the values). C. albicans CaCi-2 (fluconazole-resistant clinical isolate) + fluconazole, Alamar Blue growth, 48 h. AID 1979;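 active = most replicates above 75%; inconclusive = exactly half above 75%; inactive = most below 75%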;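 also: all wells also contain fluconazole at 8 µg/ml as a sub-toxic cotreatment; 0% = median of DMSO wells and 100% = median of geldanamycin control wells; wells of about 8 µL received 7.5 nL stock; the first replicate is given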
Ecoli rRNA inh: selective bacterial rRNA inhibition in E. coli; E. coli WT GFP vs humanized-ribosome RFP mutants, fluorescence, 24 h; stronger effect = lower value; DMSO median 0, no signal -100; GFP signal change (wild-type ribosome), % (no concentration beside the values); 1.6% of 350,000 active;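 active = significant combined selectivity score with lowered wild-type GFP, culture density cut under 30%, mutant RFP and density less affected; inactive = any of these conditions unmet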; also: one replicate is shown; some compounds called inactive have numbers as strong as hits
T cruzi repl: T. cruzi replication inhibition. T. cruzi beta-gal in NIH3T3, luminescence, 90 h. inhibition, % (no concentration beside the values). 1.4% of 300,000 active. AID 1885;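 active = mean inhibition across valid replicates above about 55%, limit read from the data; inconclusive = mean below that limit but half or more replicates reach it; inactive = mean below it, under half of replicates reach it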;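 also: signal also drops with host cell toxicity which is not excluded here; 0% = plate median of DMSO wells and 100% = zero luminescence signal; higher percent means less beta-gal luminescence so fewer parasites; stock transfer was 50 nL into about 50 µL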
FGF22 binding: FGF22 (human) thermal shift binding | recombinant FGF22 thermal shift, SYPRO orange fluorescence; percent of sucrose octasulfate shift, DMSO zero | Q9HCT0 | AID 651658 | calls only at 9.99 µM | 1.5% of 340,000 active;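 active = melting point raised past a set limit in the mean and every replicate; inconclusive = no clear call; three in four hits are not shown here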
Target sequence (Q9HCT0 whole entry, looked up): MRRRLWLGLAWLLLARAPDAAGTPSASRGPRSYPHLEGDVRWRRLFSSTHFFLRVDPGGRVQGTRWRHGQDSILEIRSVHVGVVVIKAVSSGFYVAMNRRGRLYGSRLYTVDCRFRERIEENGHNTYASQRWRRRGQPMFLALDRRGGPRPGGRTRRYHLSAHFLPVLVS
AF4-AF9 inh: blocks AF4 peptide binding to human AF9; 0.47% of 350,000 active; inhibition, % at 10 µM; P42568; AlphaScreen, biotin-AF4 peptide binding to FLAG-AF9;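 active = every replicate reaching a set inhibition limit, whatever the replicate mean, cut at about 25% in these data; inconclusive = mean inhibition reaches that limit but some replicates miss it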;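 also: 0% = plate neutral control median and 100% = total signal loss; the record names both 10 and 1 µM as test concentration; the first replicate is given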
Target sequence (P42568 whole entry, looked up): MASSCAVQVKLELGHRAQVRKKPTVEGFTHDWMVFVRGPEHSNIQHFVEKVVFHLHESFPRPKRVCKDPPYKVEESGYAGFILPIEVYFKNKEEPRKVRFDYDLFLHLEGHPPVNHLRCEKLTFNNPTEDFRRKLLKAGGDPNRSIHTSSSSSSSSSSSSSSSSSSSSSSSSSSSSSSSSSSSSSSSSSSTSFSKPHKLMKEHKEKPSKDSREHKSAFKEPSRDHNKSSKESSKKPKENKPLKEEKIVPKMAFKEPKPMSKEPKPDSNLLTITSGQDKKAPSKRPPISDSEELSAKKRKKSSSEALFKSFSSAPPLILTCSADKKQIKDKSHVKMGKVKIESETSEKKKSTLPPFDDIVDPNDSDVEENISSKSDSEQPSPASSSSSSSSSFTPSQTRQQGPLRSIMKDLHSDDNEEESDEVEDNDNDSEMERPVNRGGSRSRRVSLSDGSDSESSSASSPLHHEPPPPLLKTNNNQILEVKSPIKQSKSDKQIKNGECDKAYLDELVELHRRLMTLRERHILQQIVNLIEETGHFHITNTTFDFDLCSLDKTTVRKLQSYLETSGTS
Ecoli rRNA inh OD600: further read-out of Ecoli rRNA inh, marked with its call; OD600 change, %; measured here: OD600 growth;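 optical density of the mix in the first replicate; 0 = DMSO median and -100 = no signal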
Ecoli rRNA inh RFP: recorded beside Ecoli rRNA inh, whose call it bears; RFP signal change, %; measured here: RFP humanized mutant strains;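 first replicate; 0 = DMSO median and -100 = no signal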
Active calls of the source: *; i = inactive; ? = inconclusive; . = no result given. Some of the compounds tested; the hit share may differ from the screen's.

Under each structure – Beta cell apopt	ALR H2O2 inh	RanGTP-Imp inh	Calb FLC	Ecoli rRNA inh	Ecoli rRNA inh OD600	Ecoli rRNA inh RFP	T cruzi repl	FGF22 binding	AF4-AF9 inh
> O=C(Nc1nnc(Cc2ccccc2)s1)C1CCC1
  3	-17	-4.3	-21	2	1	-0.2	2	i	1.3
> CCC(=O)NC1CC2CCCC(C1)N2Cc1ccc(C)cc1 (centres undefined)
  -2	-13	-2.1	-5	-1	8	-3.7	6	i	-2.0
> Cc1cc(NC(=O)CSc2nnc(C)c(=O)n2N)no1
  -1	-14	-3.3	-10	14	15	2.9	-1	i	-2.3
> Clc1ccc(CO/N=C2\CCCc3nonc32)c(Cl)c1
  3	-3	-0.5	-2	-20	-23	-9.4	24	i	0.3
> O=C(Cc1ccccc1)Nc1c(C(=O)N2CCOCC2)cnn1-c1ccccc1
  -6	-1	-3.0	25	5	4	-1.6	-15	i	-4.2
> Cc1ccc(-c2nc(CSCC(=O)N3CCCC3)c(C)o2)cc1
  -4	99*	-0.7	29	.	.	.	-13	.	.
> Clc1ccc(-c2nnc(-c3ccc(Br)o3)o2)c(Cl)c1
  -1	-2	0.3	-6	.	.	.	20	.	.
> CCOc1ccc(NC(=O)COc2ccc(S(=O)(=O)N3CCCC3)cc2)cc1
  -1	-8	-0.6	-8	12	9	-0.7	28	i	-2.6
> COc1ccc(-n2c(SCC(=O)N3CCOCC3)nc3ccccc3c2=O)cc1
  -1	4	-0.3	-1	0	2	-2.9	6	i	1.1
> CCC(CC)NCC(O)COc1ccc(Br)cc1 (centres undefined)
  -3	-6	.	-11	6	-4	1.1	.	i	0.5

Whole records from above.
Cc1ccc(-c2nc(CSCC(=O)N3CCCC3)c(C)o2)cc1 is entered as Beta cell apopt = -4; ALR H2O2 inh = 99*; RanGTP-Imp inh = -0.7; Calb FLC = 29; Ecoli rRNA inh = .; Ecoli rRNA inh OD600 = .; Ecoli rRNA inh RFP = .; T cruzi repl = -13; FGF22 binding = .; AF4-AF9 inh = .
Cc1cc(NC(=O)CSc2nnc(C)c(=O)n2N)no1 is entered as Beta cell apopt = -1; ALR H2O2 inh = -14; RanGTP-Imp inh = -3.3; Calb FLC = -10; Ecoli rRNA inh = 14; Ecoli rRNA inh OD600 = 15; Ecoli rRNA inh RFP = 2.9; T cruzi repl = -1; FGF22 binding = i; AF4-AF9 inh = -2.3

(further entries)
Under each structure – Beta cell apopt	ALR H2O2 inh	RanGTP-Imp inh	Calb FLC	Ecoli rRNA inh	Ecoli rRNA inh OD600	Ecoli rRNA inh RFP	T cruzi repl	FGF22 binding	AF4-AF9 inh
> Cc1ccc(C(C)C)c(OCCCNCc2cccnc2)c1
  4	-4	1.1	-7	-5	-4	2.4	41	i	5.5
> CCn1c(CNc2cccc(Cl)c2)nnc1SCc1ccccc1
  -1	-18	1.8	20	.	.	.	6	.	.
> COCCNC(=O)/C(C#N)=C/c1c(N2CCN(c3ccccc3)CC2)nc2ccccn2c1=O
  6	.	5.4	-10	8	5	2.8	6	i	6.8
> COc1ccc(C(=O)NCc2ccc(Cl)c(Cl)c2)cc1OC
  1	-3	1.8	13	.	.	.	1	.	.
> CCOc1cc(NC(=O)c2ccco2)c(OCC)cc1NC(=O)COc1ccccc1
  6	-11	-0.2	-1	.	.	.	-5	.	.
> COc1ccc(/C=C2/N=C(c3cccs3)OC2=O)cc1OC(C)C
  -2	7	-0.4	5	.	.	.	-18	.	.
> c1ccc(COc2ccc(-c3sc(Nc4ccccc4)n[n+]3-c3ccccc3)cc2)cc1
  65	.	4.4	5	.	.	.	32	.	.
> Cc1ccc(S(=O)(=O)N2CCCC2C(=O)Oc2ccccc2)cc1 (centres undefined)
  -2	-9	1.3	-5	.	.	.	-2	.	.
> Cc1ccc(Cn2c(=O)c3ccccc3n3nc(C)cc23)cc1
  0	.	1.7	3	-4	-5	2.7	15	.	-2.0
> O=C(O)CCC(=O)c1cccc2ccccc12
  -6	-2	0.0	-2	.	.	.	-17	.	.

The list goes on; the last two above are carried over.
Under each structure – Beta cell apopt	ALR H2O2 inh	RanGTP-Imp inh	Calb FLC	Ecoli rRNA inh	Ecoli rRNA inh OD600	Ecoli rRNA inh RFP	T cruzi repl	FGF22 binding	AF4-AF9 inh
> Cc1ccc(Cn2c(=O)c3ccccc3n3nc(C)cc23)cc1
  0	.	1.7	3	-4	-5	2.7	15	.	-2.0
> O=C(O)CCC(=O)c1cccc2ccccc12
  -6	-2	0.0	-2	.	.	.	-17	.	.
> Cc1ccc(N(CC(=O)NC2CCC(C)CC2)S(=O)(=O)c2cccnc2)cc1 (centres undefined)
  2	-6	0.0	3	-13	-38	-2.7	22	i	-1.6
> Cc1cccc(NC(=O)CSCC(=O)Nc2cccc3ncccc23)c1
  -3	99*	4.9	6	2	12	0.0	-7	i	-0.4
> COc1ccc(CCNC(=O)C2CC(=O)N(CCc3ccc(C)cc3)C2)cc1OC (centres undefined)
  4	3	-3.4	10	0	-8	-5.5	-6	i	-0.6
> COc1ccccc1NC(=O)c1ccc[n+]([O-])c1
  -3	.	-2.7	0	9	6	0.6	0	i	-5.3
> Cc1[nH]c2ccccc2c1CC#N
  -2	-30	0.1	5	12	-3	5.2	-17	i	2.9
> Clc1ccc(-c2csc(-c3ccncc3)n2)cc1
  -3	-4	3.2	?	-1	20	-0.5	?	i	1.3
> O=C(NCc1ccccn1)C1CCCN(S(=O)(=O)c2ccc(Br)cc2)C1 (centres undefined)
  -1	.	1.4	6	.	.	.	1	.	.
> Cc1cccc(C(=O)N[C@H](C(=O)Nc2ccc(C)c(S(=O)(=O)N3CCOCC3)c2)C(C)C)c1
  7	-5	.	.	0	-5	3.5	.	i	1.4
> Cc1cc(=O)[nH]c(-n2ncc(C#N)c2N)n1
  .	-3	1.4	-2	8	11	0.1	-8	i	-1.6
> CC1CCN(C(=O)C2CCN(S(=O)(=O)c3cccs3)CC2)CC1
  1	2	5.5	-2	.	.	.	-5	i	3.4
> NC(=O)Cn1cnc2nc3n(c2c1=O)CCC3
  0	-1	-0.3	-3	5	-18	2.6	-13	i	-0.9
> COc1ccc(C(=O)/C=C/C(=O)N(CC(=O)NCCC(C)C)Cc2cccs2)c(O)c1
  .	.	-3.8	-39	-8	-12	-4.9	46	i	-1.2
> CC(NC(=O)c1ccc(F)cc1F)C1CC2CCC1C2 (centres undefined)
  0	-2	1.5	6	1	-7	2.3	2	i	1.0
> COc1ccccc1N1CCN(/N=C/c2ccccc2C(=O)O)CC1
  -3	37	0.7	-3	3	6	0.5	-8	i	-8.6
> CCOC(=O)CN1C(=O)S/C(=C/c2ccco2)C1=O
  -2	.	3.0	-3	13	9	0.8	9	i	8.7
> C=CCOc1ccc(Br)cc1CNC(C)(C)C
  -10	-21	0.3	-13	12	15	-0.8	-3	i	2.3
> CCOc1cc(/C=C2/SC(=S)N(CC3CCCO3)C2=O)ccc1O (centres undefined)
  -1	1	-0.9	0	10	14	-0.6	4	i	0.5
> Cc1ccc(SCCC(=O)Nc2nccs2)cc1
  0	-5	4.0	-18	-22	-38	-1.7	-12	.	2.2
> NC(=O)CN1C(=O)C(=O)N(Cc2ccc(F)cc2)C1=O
  -11	0	-0.8	-7	3	8	3.6	0	i	0.4
> c1ccc(Oc2nc(-c3ccccn3)nc3ccccc23)cc1
  47	19	-0.3	10	-19	-16	-6.0	65*	i	-1.1
> COc1cc(CC(=O)NC(c2ccccc2)c2ccccc2)cc(OC)c1OC
  .	-5	5.5	-2	3	20	-2.3	-13	i	-0.2
> CCN(C(=O)COC(=O)c1ccco1)c1c(N)n(Cc2ccccc2)c(=O)[nH]c1=O
  -4	-2	-2.1	5	19	16	3.9	-8	i	-0.3
> CC1(C)Cc2c(sc(NC(=O)c3ccc(C(=O)c4ccccc4)cc3)c2C(N)=O)C(C)(C)N1
  8	-14	-8.8	72	8	9	27	53	i	-4.1
> COc1ccc(CNC(=O)N2CCN(S(=O)(=O)c3ccccc3F)CC2)cc1
  1	.	-0.9	0	5	9	3.0	0	i	0.1
> Cc1cc(Nc2cc(C(=O)O)ccc2C)n2ncnc2n1
  -1	-7	-1.7	1	1	6	-2.3	-10	i	-4.9
> O=C1NC2(CCCCC2)C(=O)N1/N=C/c1ccc(O)cc1O
  -12	-11	-0.1	-2	.	.	.	1	.	.
> O=C(/C=C/c1ccc(S(=O)(=O)N2CCOCC2)cc1)NCCCn1ccnc1
  -2	-1	0.6	8	14	2	-4.1	?	i	-41
> COc1ccccc1NC(=O)CSc1nnnn1-c1ccccc1F
  -4	-11	-1.8	3	6	4	-2.0	-2	i	1.6
> O=C(NC(=O)N1CCN(c2cccc(Cl)c2)CC1)c1ccc(Cl)cc1
  -3	-3	0.1	4	-59	-77	-19	-4	i	-1.1
> CCc1ccc(C(=O)Nn2c(C)nc3ccccc3c2=O)cc1
  -1	-3	0.6	1	2	-3	-0.8	0	i	-15
> CCC(C)NC(=O)C1CCCN(C(=O)NC2CCCCC2)C1 (centres undefined)
  -10	2	-4.5	-6	.	.	.	-1	.	.
> COc1ccc(NC(=S)N(CCC(C)C)C2CCN(C(C)=O)CC2)cc1
  -1	-4	2.0	-23	-4	3	1.2	1	i	-1.1
> CCOC(=O)c1c(NC(=O)Cc2ccccc2)sc2c1CCN(CC)C2
  -15	0	55*	7	4	5	-3.2	29	i	-1.6
> COc1ccc(C(=O)NC(C)c2nc3ccccc3n2C)cc1OC (centres undefined)
  1	-1	0.3	-5	.	.	.	0	.	.
> c1ccc(-c2nnc(SCC3CCCCO3)nc2-c2ccccc2)cc1 (centres undefined)
  -2	-3	-4.7	20	-8	-8	-4.3	29	i	8.3
> O=C(COc1ccc2ccccc2c1)Nc1cccc(C(=O)Nc2ccccc2C(=O)O)c1
  -3	.	-6.0	-4	.	.	.	-15	.	.
> Cc1cc(C(=O)N/N=C/c2cccc(OC(=O)c3ccco3)c2)n[nH]1
  -6	15	3.7	-4	.	.	.	-8	.	.
> Cc1ccc(O)c(C(=O)c2cnc3c(c2)COc2ccccc2-3)c1
  -2	-6	1.5	9	.	.	.	3	.	.
> COc1ccc(NC(=S)N(Cc2ccc(Cl)cc2)Cc2ccc(C(=O)O)cc2)cc1Cl
  -3	96*	-0.9	6	-32*	-20*	-0.1*	-2	i	-1.0
> O=C(CNC(=O)N1CC(=O)Nc2ccccc21)NCc1ccccc1
  .	-4	1.7	1	8	8	-2.3	-10	i	-7.4
> Cc1ccc(S(=O)(=O)N2CC3CCCN3c3ccc(C(F)(F)F)cc32)cc1 (centres undefined)
  14	.	-1.2	-3	.	.	.	18	.	.
> CCOC(=O)c1c(C)[nH]c(N=Nc2cccc(C)c2)c1C
  5	-6	0.8	-6	.	.	.	16	.	.
> CCc1cccc2c1NC(=O)C2(O)N1CCCC(C)C1 (centres undefined)
  -8	.	-1.5	-4	2	-4	-1.3	-11	i	1.0
> COC(=O)c1ccc(CNC(=O)c2ccc(S(=O)(=O)N3CCCC(C)C3)cc2)cc1 (centres undefined)
  5	0	.	.	16	17	1.0	.	i	-0.1
